Assay outcomes (PubChem BioAssay)
Calb FLC: C. albicans growth inhibition with fluconazole, primary screen, CaCi-2 strain, Alamar Blue fluorescence; AID 1979, 2009; C. albicans CaCi-2 (fluconazole-resistant clinical isolate) + fluconazole, 48 h; actives 0.57% (n = 300,000); growth inhibition, % (no concentration beside the values);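 active = most replicates above 75%; inconclusive = exactly half above 75%; inactive = most below 75%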;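 note: all wells also contain fluconazole at 8 µg/ml as a sub-toxic cotreatment; 0% = median of DMSO wells and 100% = median of geldanamycin control wells; wells of about 8 µL received 7.5 nL stock; the first replicate is given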
Beta apoptosis: inhibitors of cytokine-induced beta cell apoptosis, primary screen, luminescence; actives 0.8% (n = 300,000); protection from apoptosis, % (concentration not given with the values); INS-1E cytokine-induced death, ATP luminescence, 48 h; percent of positive-control rescue, neutral wells zero;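 active = all replicates at 75% or more, or half of them and the mean; inconclusive = half reach 75% but not the mean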;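 note: 0% = cytokine-treated negative control wells and 100% = positive control rescue; higher means more ATP so stronger rescue from cytokine killing; wells of about 40 µL received 100 nL stock; the first replicate is given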
MLL AF4-AF9 inh: inhibitors of AF4 peptide binding to AF9, primary screen, biochemical, AlphaScreen, biotin-AF4 peptide, FLAG-AF9, single point | actives 0.47% (n = 350,000) | Protein AF-9 (Homo sapiens), P42568 | inhibition, % at 10 µM;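 active = every replicate reaching a set inhibition limit, whatever the replicate mean, cut at about 25% in these data; inconclusive = mean inhibition reaches that limit but some replicates miss it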;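 note: 0% = plate neutral control median and 100% = total signal loss; the record names both 10 and 1 µM as test concentration; the first replicate is given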
Target sequence (P42568 whole entry, looked up): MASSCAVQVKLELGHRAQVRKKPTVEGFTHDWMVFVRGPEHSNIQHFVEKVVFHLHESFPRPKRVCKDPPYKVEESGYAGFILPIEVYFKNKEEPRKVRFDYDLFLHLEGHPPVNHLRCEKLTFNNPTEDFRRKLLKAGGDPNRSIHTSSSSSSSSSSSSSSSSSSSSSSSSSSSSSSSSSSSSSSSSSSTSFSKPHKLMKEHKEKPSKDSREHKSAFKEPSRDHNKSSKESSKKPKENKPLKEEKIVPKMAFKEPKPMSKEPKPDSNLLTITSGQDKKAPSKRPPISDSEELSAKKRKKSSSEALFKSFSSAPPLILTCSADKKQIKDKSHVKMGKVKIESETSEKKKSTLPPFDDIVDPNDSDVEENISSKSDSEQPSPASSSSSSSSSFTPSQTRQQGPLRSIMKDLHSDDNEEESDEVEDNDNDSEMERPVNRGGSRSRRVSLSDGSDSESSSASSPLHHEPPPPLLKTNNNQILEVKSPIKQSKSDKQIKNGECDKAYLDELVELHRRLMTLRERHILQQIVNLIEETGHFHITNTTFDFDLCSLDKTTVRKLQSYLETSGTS
T cruzi inh: inhibitors of intracellular T. cruzi growth, primary screen, luminescence, NIH3T3 host cells; T. cruzi beta-gal in NIH3T3, 90 h; actives 1.4% (n = 300,000); inhibition, % (concentration not given with the values);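 active = mean inhibition across valid replicates above about 55%, limit read from the data; inconclusive = mean below that limit but half or more replicates reach it; inactive = mean below it, under half of replicates reach it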;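 note: signal also drops with host cell toxicity which is not excluded here; 0% = plate median of DMSO wells and 100% = zero luminescence signal; higher percent means less beta-gal luminescence so fewer parasites; stock transfer was 50 nL into about 50 µL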
FGF22 binding: binders of human FGF22 protein, primary screen, FGF22 synaptogenesis inhibitor project, biophysical, thermal shift, single point | recombinant FGF22 thermal shift, SYPRO orange fluorescence; percent of sucrose octasulfate shift, DMSO zero | actives 1.5% (n = 340,000) | Fibroblast growth factor 22 (Homo sapiens), Q9HCT0 | calls only at 9.99 µM;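 active = melting point raised past a set limit in the mean and every replicate; inconclusive = no clear call; three in four hits are not shown here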
Target sequence (Q9HCT0 whole entry, looked up): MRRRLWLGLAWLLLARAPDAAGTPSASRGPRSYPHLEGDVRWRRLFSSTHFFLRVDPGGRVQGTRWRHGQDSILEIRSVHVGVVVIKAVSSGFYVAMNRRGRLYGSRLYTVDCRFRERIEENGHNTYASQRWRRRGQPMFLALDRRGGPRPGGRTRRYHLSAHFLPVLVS
ALR H2O2 inh: inhibitors of human ALR sulfhydryl oxidase, primary screen, biochemical, H2O2 detection, HRP-luminol luminescence, single point; actives 3.8% (n = 290,000); FAD-linked sulfhydryl oxidase ALR (Homo sapiens), P55789; inhibition, % (no concentration beside the values); purified ALR, DTT oxidation; AID 485317, 2010;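 active = mean and each replicate at 75% or more; inconclusive = only one of the two met; inactive = neither met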;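 note: stock transfer was 7.5 nL into about 7.5 µL; 0% = neutral wells and 100% = wells with inactivated enzyme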
Target sequence (P55789 whole entry, looked up): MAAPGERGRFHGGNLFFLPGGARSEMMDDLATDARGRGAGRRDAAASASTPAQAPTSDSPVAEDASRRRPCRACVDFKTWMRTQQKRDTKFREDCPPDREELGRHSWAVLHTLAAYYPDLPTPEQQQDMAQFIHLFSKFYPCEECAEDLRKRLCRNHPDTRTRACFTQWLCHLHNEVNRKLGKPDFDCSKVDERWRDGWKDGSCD
RanGTP-Imp inh: inhibitors of RanGTP-importin-beta interaction, primary screen, biochemical, FRET, CFP-Ran, YFP-importin-beta, homogeneous | Ran GTPase (GTP-bound) - importin-beta complex | cell-free CFP-Ran/YFP-importin-beta FRET ratio | inhibition, % (concentration not given with the values) | actives 1.1% (n = 300,000);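 active = most replicates above 15%; inconclusive = exactly half above 15%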;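 note: 0% = DMSO wells and 100% = Ran loaded with GDP instead of GTP; wells of about 40 µL received 100 nL stock; the first replicate is given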
Ecoli rRNA inh: reduced GFP signal of wild-type E. coli, primary screen, bacterial rRNA inhibitor project, GFP/RFP fluorescence, OD600, single point. E. coli WT GFP vs humanized-ribosome RFP mutants, 24 h; active compounds read low; DMSO median 0, no signal -100. GFP signal change (wild-type ribosome), % (concentration not given with the values). actives 1.6% (n = 350,000). AID 720706, 2013;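 active = significant combined selectivity score with lowered wild-type GFP, culture density cut under 30%, mutant RFP and density less affected; inactive = any of these conditions unmet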; note: one replicate is shown; some compounds called inactive have numbers as strong as hits
Ecoli rRNA inh OD600: recorded beside Ecoli rRNA inh, whose call it bears; OD600 change, %; measured here: OD600 growth;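 optical density of the mix in the first replicate; 0 = DMSO median and -100 = no signal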
Ecoli rRNA inh RFP: second read-out of Ecoli rRNA inh, no call of its own (marks repeat the call); RFP signal change, %; measured here: RFP humanized mutant strains;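 first replicate; 0 = DMSO median and -100 = no signal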
* = called active by the depositor; i = inactive; ? = inconclusive; . = no result given. An excerpt (hit frequency here may not be typical).

SMILES	Calb FLC	Beta apoptosis	MLL AF4-AF9 inh	T cruzi inh	FGF22 binding	ALR H2O2 inh	RanGTP-Imp inh	Ecoli rRNA inh	Ecoli rRNA inh OD600	Ecoli rRNA inh RFP
CC1CC(C)CN(C(=O)CSc2nc3ccsc3c(=O)n2Cc2ccccn2)C1 (stereo not drawn)	-7	3	.	16	.	-1	1.8	.	.	.
O=c1[nH]n(-c2ccc(Cl)cc2)c(=O)c(Cl)c1Cl	-20	0	.	-11	.	43	-2.3	.	.	.
CCOc1ccc(-n2c(SCC(=O)Nc3nccs3)nnc2-c2ccoc2C)cc1	?	0	-4.3	-1	i	-3	-1.4	-12	-11	-4.1
CSc1ccc(S(=O)(=O)N2CCC(C(=O)Nc3ccccc3C(F)(F)F)CC2)cc1	-3	0	-0.3	5	i	31	0.5	-3	-20	2.1
O=C(Cc1ccc(Br)cc1)N1CCOCC1	1	-2	-2.7	-10	i	.	0.1	14	27	8.4
O=C(CN1CCOCC1)Nc1scc2c1c(=O)oc1ccccc12	14	1	.	.	i	.	-4.7	0	-2	-3.5
Cc1c2c(nc3c(C(=O)NC4CCCC4)cnn13)CCCC2	16	-4	.	7	.	-6	-3.5	.	.	.
CN1CCC(N(C)CC(=O)Nc2ccccc2N2CCOCC2)CC1	5	2	.	12	.	-4	-0.8	.	.	.
Cc1nnc(C)c2c(C)n(-c3ccccc3)c(C)c12	-2	.	19	22	i	.	6.0	15	10	3.5
COc1cc2cc(CCOC(=O)c3ccc(F)cc3)oc(=O)c2cc1OC	.	-9	-2.6	.	i	-13	.	3	-7	-6.2
CC(C)NC(=O)CC(=O)N/N=C/c1ccc(Br)cc1	0	-3	-35	-2	i	-25	2.1	8	7	0.9
CC(=C1C(=O)c2ccccc2C1=O)N1CCC(C(N)=O)(N2CCCCC2)CC1	-16	-9	.	.	.	-8	3.4	.	.	.
CC(=O)Nc1cc(C(=O)O)ccc1S(=O)(=O)c1ccc(C)cc1	-11	1	.	-7	.	-3	3.0	.	.	.
CC(C)(C)[C@@H]1CCC(=O)N(CC[C@H](N=[N+]=[N-])c2ccccc2)CC1	7	-1	2.7	21	i	-31	-2.2	-11	-7	-3.8
CC[n+]1c(C)n(-c2ccccc2)c2ccc(NC(C)=O)cc21	-10	44	-0.6	49	i	-3	-1.6	19	9	2.6
CCOc1ccc(S(=O)(=O)NCc2ccccc2Cl)cc1C(N)=O	-1	2	1.3	-13	i	-3	-13	-10	5	-3.0
COc1cc(CC(=O)Nc2nc(-c3ccc(F)c(F)c3)cs2)cc(OC)c1OC	-4	93*	-1.8	7	i	0	2.9	-17	-39	24
O=C(CSc1nc2ccccc2c(=O)n1CCCN1CCOCC1)Nc1ccc2c(c1)OCO2	0	-2	3.9	12	i	-5	0.9	18	9	-0.8
CCCSc1nc(C)c2cc(C)cc(C)c2n1	6	-3	.	-1	.	-8	-3.7	.	.	.
CCC(=O)Nc1nnc(-c2ccco2)o1	-10	-3	-1.3	-20	i	.	4.7	12	10	0.1
CC1CN(S(=O)(=O)c2ccc(NC(=O)CCN3C(=O)c4ccccc4C3=O)cc2)CC(C)O1 (stereo not drawn)	-3	-1	.	-6	.	1	8.1	.	.	.
O=C1CC2(CCCCC2)Oc2ccc(OCC(=O)N3CCOCC3)cc21	-2	-9	9.7	-19	i	-15	6.2	-13	-10	-0.8
COc1ccc2c(c1)CCc1c(C(=O)NCc3ccc(Cl)cc3)noc1-2	13	2	.	10	.	-16	-4.0	.	.	.
CCc1cccc2c(C(=O)CSc3nnc(-c4ccncc4)n3C)c[nH]c12	-9	-2	3.2	19	i	-9	6.2	-3	-2	1.0
O=C(COC(=O)CCCN1C(=O)c2cccc3cccc(c23)C1=O)Nc1cccc(C(F)(F)F)c1	7	-4	0.2	4	i	-6	1.0	-6	-5	2.3
COC(=O)c1sc(NC(=O)c2ccc(Cn3cc(Cl)cn3)o2)c(C#N)c1C	3	12	.	-13	.	88*	-0.3	.	.	.
C=CCn1c(SCC(=O)Nc2ccccc2C)nc2sc(C)c(C)c2c1=O	-3	15	.	17	.	-3	-3.0	.	.	.
CCOc1ccccc1NC(=O)COC(=O)C1CC1	-1	-5	-2.7	-7	i	5	9.1	9	1	0.5
CN(C)S(=O)(=O)n1cc(/C=C(\NC(=O)c2ccccc2F)C(=O)N2CCCC2)c2ccccc21	0	9	2.4	-4	i	0	1.9	-11	-20	-0.1
Oc1cccc(/C=N/N2CCN(c3ccccn3)CC2)c1	0	-3	2.1	-12	i	.	-1.1	2	-2	-5.4
CCOC(=O)C(/C=C(\C#N)C(=O)OCC)=C(/N)N1CCN(c2ccc(OC)cc2)CC1	1	-1	.	-5	.	19	-0.9	.	.	.
CN(C)S(=O)(=O)c1ccc(C(=O)Nc2ccc(CN3CCCC3)cc2)cc1	-11	-9	.	6	.	-5	3.9	.	.	.
COc1ccc(-c2nc(-c3cccc([N+](=O)[O-])c3O)cc(=O)o2)cc1OC	-7	-5	-8.1	-4	i	-10	3.2	10	12	11
CCOc1ccc(NC(=O)C2CCN(S(C)(=O)=O)CC2)cc1	4	1	-2.8	-11	i	1	4.8	12	13	-0.9
O=C1C(Cl)=C(N2CCOCC2)C(=O)N1c1cccc(Cl)c1	13	-4	.	-3	.	9	-0.6	.	.	.
Cc1c(-n2cc(C(=O)c3cc(Br)ccc3O)cc(C#N)c2=O)c(=O)n(-c2ccccc2)n1C	14	5	.	2	.	11	-0.9	.	.	.
CSc1nc2ccccc2c(=O)n1C1CCOC(C)(C)C1 (stereo not drawn)	12	-1	-0.1	-11	i	-13	0.5	-9	-13	-0.1
Nc1nc(-c2ccco2)nn1C(=O)CCc1ccccc1	-3	-2	.	-19	.	.	2.0	.	.	.
CCC(C)n1[nH]c(=O)c2c(C)cc(C)nc21 (stereo not drawn)	-14	-1	.	-2	.	5	-4.9	.	.	.
Cc1cc(C(=O)CN2C(=O)NC3(CCCc4ccccc43)C2=O)c(C)n1Cc1ccccc1 (stereo not drawn)	15	-2	.	26	.	31	-2.5	.	.	.
COc1ccc(C(=O)C2CCCN(C(=O)c3c4c(nn3C)CCCC4)C2)cc1F (stereo not drawn)	-18	-8	-0.8	-18	.	-4	7.0	-1	9	1.0
O=C(NCCSCc1ccco1)Nc1ccc(Cl)cc1	-18	-12	.	12	.	.	2.2	.	.	.
CN1C(=O)C2(N=c3ccccc3=N2)c2ccccc21	-7	13	.	11	.	-5	0.1	.	.	.
O=C(CSc1nnnn1-c1ccc2c(c1)OCCO2)Nc1nc2c(s1)CCCC2	-13	.	5.3	21	i	-1	5.3	11	1	0.3
Cc1ccsc1C(=O)Nc1cccc(-n2cnnn2)c1	7	2	-12	-12	i	1	-1.8	-10	-1	-4.0
Cc1cc(C)c(CN2CCC(n3nccc3NC(=O)c3ccccc3Cl)CC2)cc1C	4	2	6.9	12	i	-20	0.4	-17	-14	1.8
CCCCCCSc1cccc(-c2nc3cc(C)ccn3c2NC2CCCCC2)c1	2	13	3.2	31	i	.	2.6	9	3	-0.9
N#Cc1ccc(OCC(=O)NN2Cc3ccccc3C2=N)cc1	0	-3	-1.5	-12	i	.	2.7	16	13	-0.9
COc1cc2c(cc1OC)CN(CC(=O)Nc1ccc(F)cc1)C(C(=O)O)C2 (stereo not drawn)	4	-11	0.4	-4	i	-15	-2.5	13	14	1.6
NS(=O)(=O)c1ccc(NC(=O)COC(=O)/C(=C/c2cccs2)c2cccs2)cc1	5	-5	4.4	-7	i	-12	2.2	-18*	-13*	7.9*
COC(=O)c1ccccc1NC(=O)C1CCCN(S(=O)(=O)c2ccc(F)cc2)C1 (stereo not drawn)	3	-2	.	19	.	-1	4.7	.	.	.
c1ccc(Sc2ncnc3ccccc23)cc1	15	.	-0.9	-25	i	-17	4.8	-18*	-0.9*	-2.5*
CCOC(=O)NC(=S)Nc1ccc(C(C)(C)C)cc1Br	-4	1	1.8	3	i	17	-2.3	-17	-18	14
O=c1[nH]c(/C=C\c2ccccc2F)nc(O)c1[N+](=O)[O-]	1	-5	0.6	1	i	97*	0.4	16	7	2.2
O=C1C(=C2SCCCS2)CC/C1=C\c1ccc(F)cc1	-4	8	.	11	.	.	?	.	.	.
CCC(C)NC(=O)c1ccccc1NC(=O)c1ccc(CSc2ccccc2)cc1 (stereo not drawn)	-10	5	.	26	.	-10	-1.7	.	.	.
COc1cccc(NC2c3ccccc3C(=O)N2Cc2ccco2)c1 (stereo not drawn)	3	1	2.1	2	i	-4	2.6	1	4	-4.5
CCOc1ccc(C2CC(c3ccccc3C)n3nc(N)nc3N2)cc1 (stereo not drawn)	-1	-5	1.9	26	i	2	-1.2	5	-10	4.1
c1ccc(-c2cn3nc(-c4ccccc4)sc3n2)cc1	-11	1	.	-11	.	19	6.0	.	.	.
COc1ccccc1N1CCN(C2=NS(=O)(=O)c3ccccc32)CC1	-21	-8	.	-3	.	33	6.8	.	.	.

Shown as a hit in ALR H2O2 inh, of those listed so far:
structure,MLL AF4-AF9 inh,ALR H2O2 inh,RanGTP-Imp inh,Ecoli rRNA inh,Ecoli rRNA inh OD600,Ecoli rRNA inh RFP
COC(=O)c1sc(NC(=O)c2ccc(Cn3cc(Cl)cn3)o2)c(C#N)c1C,.,88*,-0.3,.,.,.
O=c1[nH]c(/C=C\c2ccccc2F)nc(O)c1[N+](=O)[O-],0.6,97*,0.4,16,7,2.2

Next part.
SMILES	Calb FLC	Beta apoptosis	MLL AF4-AF9 inh	T cruzi inh	FGF22 binding	ALR H2O2 inh	RanGTP-Imp inh	Ecoli rRNA inh	Ecoli rRNA inh OD600	Ecoli rRNA inh RFP
CN(Cc1ccco1)S(=O)(=O)c1ccc(CN2C(=O)c3cccnc3C2=O)s1	13	-3	-15	-10	i	-11	-0.9	22	5	-0.3
C/C(Cl)=C\Cn1c(Nc2cccc(C)c2)nc2c1c(=O)n(C)c(=O)n2C	-4	-4	8.9	30	i	24	-1.6	-9	-10	-5.1
COc1ccc(NC(=O)C2CCCN2C(=O)NC2CCCCC2)cc1OC (stereo not drawn)	?	-9	.	-7	.	.	-3.1	.	.	.
Cc1ccc(CN2CCc3[nH]c(=S)[nH]c(=O)c3C2)cc1	2	-1	-2.2	-17	i	21	-1.0	8	10	-1.6
Cn1c(COc2ccc(Cl)cc2)nc2ccccc2c1=O	-19	-11	.	7	.	-3	6.0	.	.	.
CCOc1ccc(N2C(=O)CC(N(Cc3ccco3)C(=O)CCC(=O)O)C2=O)cc1 (stereo not drawn)	5	4	-1.6	0	i	0	-4.4	15	18	1.7
